Assay outcomes as filed in PubChem BioAssay.
VDR inhibitor = blocks the human vitamin D receptor; P11473; VDR-SRC2-3 peptide fluorescence polarization, 2 h; Potency, µM, inactives show max response, negative = inhibition, usual class: inhibitors; 400,000 compounds, 0.93% hits; AID 504847; active = well fitted inhibition curve with a large enough effect; inconclusive = small, poorly fitted or top-dose-only effect, or another doubt; inactive = no such curve, though single readings can be large or run the other way; also: series mostly up to about 120 µM
Target sequence (P11473 whole entry, looked up): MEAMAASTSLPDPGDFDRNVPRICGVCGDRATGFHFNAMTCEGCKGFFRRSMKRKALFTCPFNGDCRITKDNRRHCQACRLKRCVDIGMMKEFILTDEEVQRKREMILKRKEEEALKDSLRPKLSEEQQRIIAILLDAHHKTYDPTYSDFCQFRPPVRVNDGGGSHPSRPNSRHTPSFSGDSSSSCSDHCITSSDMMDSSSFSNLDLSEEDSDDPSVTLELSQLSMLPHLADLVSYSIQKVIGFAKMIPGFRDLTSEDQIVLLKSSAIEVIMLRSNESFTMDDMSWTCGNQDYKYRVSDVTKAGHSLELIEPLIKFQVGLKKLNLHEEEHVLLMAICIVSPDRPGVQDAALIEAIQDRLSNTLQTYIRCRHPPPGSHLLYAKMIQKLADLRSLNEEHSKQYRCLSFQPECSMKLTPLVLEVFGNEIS
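Signal is fluorescence polarization, reporting how far test compounds block the interaction of VDR with the SRC2-3 coregulator peptide after a 2 h room-temperature incubation.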
Starred values were filed as active, the others as inactive; & = joins results of further samples. % is scaled to controls: 0 for no effect and ±100 for the full control effect; potency is read from the fitted curve at half-maximal effect. This is a subset. The share of hits here may be higher or lower than overall.

How did COc1ccc(N2CCN(c3csc4ccccc4c3=O)CC2)cc1 do in these assays?
VDR inhibitor: 7%

What do the screens show for `O=C(COC(=O)c1ccc2ncsc2c1)NC(=O)NCc1ccccc1`?
VDR inhibitor: 7%

How did CC(=Nc1ccc(C)c(C)c1)C1=C(O)CCC1=O do in these assays?
VDR inhibitor: -12%

Results for COc1cccc(OCC(O)CN2CCC(Cc3ccccc3)CC2)c1 (stereo unspecified) ?
VDR inhibitor: -5%

What do the screens show for `O=[N+]([O-])c1cc([N+](=O)[O-])c(Oc2cc(Cl)cc(Cl)c2)cc1NN1CCCCC1`?
VDR inhibitor: -18%

What do the screens show for `COc1cccc(OC)c1C(=O)OCc1c(-c2ccccc2)ncc2ccccc12`?
VDR inhibitor: 3%

Results for COc1cccc(Cn2nnc(C(=O)NCCc3ccc(Cl)cc3)c2N)c1 ?
VDR inhibitor: -18%

What do the screens show for `Cc1cc(C)c(NC(=O)c2cc3c(=O)n4ccccc4nc3n2C)c(C)c1`?
VDR inhibitor: 3%

How did COc1ccc(CC(=O)NCc2nnc(SCC(=O)Nc3ncc(C)s3)n2C)cc1 do in these assays?
VDR inhibitor: inconclusive

Results for COC(=O)CSc1[nH]c2ccccc2c1[N+](=O)[O-] ?
VDR inhibitor: 6%

Results for CCOc1cc(C2NC(=O)NC(O)(C(F)(F)F)C2C(=O)c2ccc(Cl)cc2)ccc1O (stereo unspecified) ?
VDR inhibitor: -8%

Results for Cc1ccc(S(=O)(=O)/N=C(\Sc2ccccc2)c2ccccc2)cc1 ?
VDR inhibitor: inconclusive

Arranged by SMILES length (smallest number first): 3 of the compounds above
What do the screens show for `Cc1cc(C)c(NC(=O)c2cc3c(=O)n4ccccc4nc3n2C)c(C)c1`?
VDR inhibitor: 3%

How did COc1ccc(CC(=O)NCc2nnc(SCC(=O)Nc3ncc(C)s3)n2C)cc1 do in these assays?
VDR inhibitor: inconclusive

Results for CCOc1cc(C2NC(=O)NC(O)(C(F)(F)F)C2C(=O)c2ccc(Cl)cc2)ccc1O (stereo unspecified) ?
VDR inhibitor: -8%

Next part
Results for CC(=O)C(N=Nc1ccccc1)(Sc1nnc(-c2ccccc2)n1-c1ccccc1)C(C)=O ?
VDR inhibitor: -4%

How did CCN(CCn1cccn1)C(=O)c1ccc2nc(Cc3ccc(OC)cc3)oc2c1 do in these assays?
VDR inhibitor: 11%

How did Cc1ccc(Cl)cc1NC(=O)c1ccc(Cn2cc(Cl)cn2)cc1 do in these assays?
VDR inhibitor: 14%

How did CC(C(=O)O)c1ccc2c(c1)Cc1cccnc1O2 (stereo unspecified) do in these assays?
VDR inhibitor: 7%

How did O=C(CSC1CCCCC1)Nc1nccs1 do in these assays?
VDR inhibitor: -4%

Results for CCOC(=O)C1CCN(C(=O)c2cc(COc3ccc(OC)c4ccccc34)on2)CC1 ?
VDR inhibitor: -18%

What do the screens show for `N#Cc1c(NC(=O)c2cc3nc(-c4ccc(Br)cc4)cc(C(F)(F)F)n3n2)sc2c1CCCC2`?
VDR inhibitor: 6%

Results for NC(=S)N/N=C/c1coc2cc(Cl)ccc2c1=O ?
VDR inhibitor: -3%

Results for N/C(=N\OC(=O)c1ccccc1)c1ccncc1 ?
VDR inhibitor: -6%

How did Cc1cccc(N2CCN(c3ncnc4c3nc3n4CCCCC3)CC2)c1C do in these assays?
VDR inhibitor: 9%

What do the screens show for `S=C(Nc1ccccc1)Nc1ccc(OCc2ccc(Cl)cc2Cl)cc1`?
VDR inhibitor: -24%

How did CN1CCN(C(=O)c2cnn(-c3ccccc3)c2NC(=O)c2ccccc2Cl)CC1 do in these assays?
VDR inhibitor: -4%

3 records drawn at random from those above:
Results for N/C(=N\OC(=O)c1ccccc1)c1ccncc1 ?
VDR inhibitor: -6%

What do the screens show for `S=C(Nc1ccccc1)Nc1ccc(OCc2ccc(Cl)cc2Cl)cc1`?
VDR inhibitor: -24%

What do the screens show for `N#Cc1c(NC(=O)c2cc3nc(-c4ccc(Br)cc4)cc(C(F)(F)F)n3n2)sc2c1CCCC2`?
VDR inhibitor: 6%

(list continues)
How did Cc1cccc(N2CCN(C(=O)CCn3c(=O)[nH]c4ccccc4c3=O)CC2)c1C do in these assays?
VDR inhibitor: 13%

How did Brc1ccc(C2=NCCC(c3ccccc3)O2)cc1 (stereo unspecified) do in these assays?
VDR inhibitor: -4%

How did CO/N=C\c1cc(C(=O)c2ccc(Cl)cc2Cl)cn1C do in these assays?
VDR inhibitor: 0%

Results for CCC[C@@H](CN1CCC[C@H]1CN1C(N)=NC[C@@H]1Cc1ccccc1)N1C[C@@H](Cc2ccccc2)N(CCc2ccc(Cl)c(Cl)c2)C1=N ?
VDR inhibitor: 6%

Results for O=S(=O)(c1ccc(NC(=S)N/N=C/c2ccc(N3CCOCC3)cc2)cc1)N1CCOCC1 ?
VDR inhibitor: 5%

How did Cc1cccc(CNC(=O)CSCc2cnn(-c3ccccc3)c2-n2cccc2)c1 do in these assays?
VDR inhibitor: 23%

How did CN(c1ccc(OCc2nnc(-c3ccccc3)o2)cc1)S(=O)(=O)c1ccccc1 do in these assays?
VDR inhibitor: -13%

What do the screens show for `COC(=O)CC1NCCc2cc(OC)c(OC)cc21` (stereo unspecified)?
VDR inhibitor: -18%

Results for O=C(CCN1CCCCO1)N1CCCC(Nc2ccc(F)cc2)C1 (stereo unspecified) ?
VDR inhibitor: -3%

What do the screens show for `O=C(/C=C/c1cccc(Cl)c1Cl)OCC(=O)N1CCOCC1`?
VDR inhibitor: -10%

How did COCCN(C(=O)c1ccccc1F)c1nc(-c2ccc(OC)cc2)cs1 do in these assays?
VDR inhibitor: -3%

How did CC(=O)N(CC(O)CN(C(C)=O)c1c(I)c(C(=O)NC[C@@H](O)CO)c(I)c(C(=O)NC[C@@H](O)CO)c1I)c1c(I)c(C(=O)NC[C@@H](O)CO)c(I)c(C(=O)NC[C@@H](O)CO)c1I do in these assays?
VDR inhibitor: -7%

Nothing new here: 2 of the compounds above.
How did COc1ccc(N2CCN(c3csc4ccccc4c3=O)CC2)cc1 do in these assays?
VDR inhibitor: 7%

What do the screens show for `O=C(COC(=O)c1ccc2ncsc2c1)NC(=O)NCc1ccccc1`?
VDR inhibitor: 7%

The listing continues.
How did CCn1c(SCC(=O)Nc2nc(-c3ccc(C)cc3)cs2)nnc1-c1ccccc1O do in these assays?
VDR inhibitor: 9%

What do the screens show for `CCOC(=O)C1=C[C@@H](C(=O)OCC)[C@@H]2C3=C(C(=O)C2(C)C)[C@H](c2ccccc2)[C@@H]2C(=O)N(c4ccccc4)C(=O)[C@@H]2[C@@H]3C1`?
VDR inhibitor: inconclusive

What do the screens show for `CCOc1ccc(NC(=O)CCNC(=O)c2ccc(Br)cc2)cc1`?
VDR inhibitor: -7%

Results for Cc1nc(SCC(=O)NC(=O)NC(C)C)nc(C)c1C ?
VDR inhibitor: 0%

What do the screens show for `CN1CCC(=NNc2ncnc3sc4c(c23)CCCC4)CC1`?
VDR inhibitor: inconclusive

How did CCOCCCNC(=O)Cn1cc2c(n1)-c1c(oc(C(=O)N3CCCC3)c1C)CC2 do in these assays?
VDR inhibitor: 5%

How did COc1ccc(CCn2c(-c3ccc(OC)cc3)nc3c(c(=O)c4ccccc4n3C)c2=O)cc1 do in these assays?
VDR inhibitor: -3%

What do the screens show for `CCn1ccc2c(OCC(=O)NCc3ccc(F)cc3)cccc2c1=O`?
VDR inhibitor: -3%

Results for COC(=O)C(NC(=O)c1ccccc1)=C(C)C ?
VDR inhibitor: -9%

How did CC(=O)Nc1ccc(NC(=O)COC(=O)C2(c3ccc(Cl)cc3)CCCC2)cc1 do in these assays?
VDR inhibitor: -13%

Results for Cc1ccc(C=NNC(=O)c2cc(-c3cccnc3)nc3ccccc23)o1 ?
VDR inhibitor: -18%

Results for COCCCNC(=O)c1ccc(N(C)S(C)(=O)=O)cc1 ?
VDR inhibitor: 1%

Results for N#Cc1cc2c([nH]c1=S)CCCCCC2 ?
VDR inhibitor: -7%

Results for Cc1ccc(S(=O)(=O)N2CCCN(C(=O)OC(C)(C)C)CC2)cc1 ?
VDR inhibitor: -6%

How did Cn1cnnc1SC(C(=O)Nc1cccc(C(F)(F)F)c1)c1ccccc1 (stereo unspecified) do in these assays?
VDR inhibitor: 7%

How did COc1cc(CNCCO)cc(Cl)c1OCc1ccccc1Cl do in these assays?
VDR inhibitor: 7%

What do the screens show for `Cc1ccc(CN(C(=O)c2ccc(F)cc2)c2ccccn2)o1`?
VDR inhibitor: 9%

What do the screens show for `Cc1ccc2[nH]c(CSc3ccccc3)cc(=O)c2c1`?
VDR inhibitor: -9%

Results for Cn1c2ccccc2c2n[nH]c(=O)nc21 ?
VDR inhibitor: -4%

What do the screens show for `Cc1nc(NCc2ccccn2)c2c3c(sc2n1)CCCC3`?
VDR inhibitor: -23%

How did Cc1ccc(NC(=O)c2cc3ccccc3oc2=O)cc1S(=O)(=O)N(C)C do in these assays?
VDR inhibitor: -3%

Results for CCOC(=O)C1CCN(S(=O)(=O)Cc2ccccc2)C1=O (stereo unspecified) ?
VDR inhibitor: 7%

How did O=C(Nc1ccc(F)cc1)c1cc2c(s1)CCCC2 do in these assays?
VDR inhibitor: -7%

How did CCO/C(C)=C1\C(=O)Nc2ccccc21 do in these assays?
VDR inhibitor: 1%

How did COC(=O)c1cc(-c2ccc(OC)c(OC)c2)n[nH]1 do in these assays?
VDR inhibitor: 10%

How did CCS(=O)(=O)c1ccc(C(=O)NC)c(Cl)c1Cl do in these assays?
VDR inhibitor: 6%

What do the screens show for `COCCNC(=O)NC12CC3CC(CC(C3)C1)C2`?
VDR inhibitor: -10%

What do the screens show for `Cc1ccc2c(C)nc(/N=C(\N)NC(=O)N3c4ccccc4Sc4ccccc43)nc2c1`?
VDR inhibitor: 1%&16%

Results for COc1ccc(Cl)cc1NC(=O)CN(C)C(=O)CCNC(=O)c1ccccc1OC ?
VDR inhibitor: -18%

How did COCC(=O)N1CCC(Oc2ccc(C(=O)NCCCn3cccn3)cc2)CC1 do in these assays?
VDR inhibitor: -5%

How did Cc1ccc(CNC(=O)COC(=O)c2c(C)noc2C)cc1 do in these assays?
VDR inhibitor: 6%

How did O=C(O)c1ccccc1C(=O)c1cccc2c(F)cccc12 do in these assays?
VDR inhibitor: -20%

How did O=C(Nc1ccc(OC(F)(F)F)cc1)c1n[nH]c(Cn2cncn2)n1 do in these assays?
VDR inhibitor: 9%

What do the screens show for `CCC(C)c1ccc(O)c(/C=N/O)c1` (stereo unspecified)?
VDR inhibitor: 17%

What do the screens show for `CCOC(=O)N1CCN(C2=NC3(CCCCC3)C(C#N)C(=O)N2)CC1` (stereo unspecified)?
VDR inhibitor: -7%

Results for COc1ccccc1C(=O)NNC(=O)c1cccc(Br)c1 ?
VDR inhibitor: 10%

Results for COc1cc(-c2noc(CCC(=O)NC3CCCCC3)n2)cc(OC)c1OC ?
VDR inhibitor: 1%

What do the screens show for `Cc1c(C#N)c2ncn(CC#N)c(=O)c2n1-c1ccccc1`?
VDR inhibitor: 0%

How did Clc1ccccc1OCCN1CCCCC1 do in these assays?
VDR inhibitor: -16%

How did Cc1ccc(-n2nnnc2SCC(=O)NCCC2=CCCCC2)c(C)c1 do in these assays?
VDR inhibitor: -1%

What do the screens show for `CCCN(CCC)CCCNC(=O)c1cn(C)c2ccc(S(=O)(=O)N3CCOCC3)cc2c1=O`?
VDR inhibitor: 5%

How did CC(C)(C)c1cc(C(=O)NNc2cccc(Cl)c2)n(Cc2ccccc2)n1 do in these assays?
VDR inhibitor: -16%

What do the screens show for `Cc1cc(C2=CC(=O)C[C@H](c3ccc4c(c3)OCO4)C2)ccc1F`?
VDR inhibitor: -20%

What do the screens show for `Cc1[nH]c2ccccc2c1CCNS(=O)(=O)c1ccc(S(N)(=O)=O)cc1`?
VDR inhibitor: -9%

How did Cc1cc(C)cc(N(CC(=O)NC2CCCCC2)C(=O)CCCC(=O)Nc2ccccn2)c1 do in these assays?
VDR inhibitor: 30%

How did CC1CCCCC1NC(=O)CCn1ccc2cc(S(=O)(=O)N3CCCC3)ccc21 (stereo unspecified) do in these assays?
VDR inhibitor: -18%

Results for Cn1c(SCC(=O)NC2CCCC2)nc2cccnc21 ?
VDR inhibitor: 2%

How did COc1ccc(C(=O)OCC(=O)Nc2sccc2C(N)=O)cc1[N+](=O)[O-] do in these assays?
VDR inhibitor: -7%

Results for CCc1ccc(-n2nc(C)c3c(C)cc(=O)n(CC(=O)Nc4ccccc4C(=O)OC)c32)cc1 ?
VDR inhibitor: 14%

Results for CC(C(=O)NCCc1ccc(Cl)cc1)n1c(=O)c2cccn2c2cccnc21 (stereo unspecified) ?
VDR inhibitor: 5%

How did O=C(c1cccc(Br)c1)N1CCCc2ccccc21 do in these assays?
VDR inhibitor: 13%

What do the screens show for `O=C(COC(=O)c1ccc(Br)o1)Nc1cccc(S(=O)(=O)N2CCCCC2)c1`?
VDR inhibitor: -5%

Results for COC(=O)c1ccc(CO/N=C/c2ccc(OC)cc2)o1 ?
VDR inhibitor: 1%

Results for COc1ccc(OCc2nc3c4c(-c5ccccc5)c(-c5ccccc5)oc4ncn3n2)cc1 ?
VDR inhibitor: -15%

Results for CS(=O)(=O)N(CC(=O)NCc1ccccn1)c1ccc2c(c1)OCCO2 ?
VDR inhibitor: 7%

Results for Cc1nn(-c2ccccc2)c(Cl)c1/C=N/NS(=O)(=O)c1ccc(Br)cc1 ?
VDR inhibitor: -9%

Results for CCCc1[nH]c2ccc(C(=O)OC)cc2c1CCC ?
VDR inhibitor: -12%

What do the screens show for `CCC(c1nnnn1C(C)(C)CC)N(CCN1CCOCC1)Cc1cc2cc(C)ccc2[nH]c1=O` (stereo unspecified)?
VDR inhibitor: -2%

What do the screens show for `NS(=O)(=O)c1cc(C(=O)OCC(=O)Nc2ccccc2[N+](=O)[O-])ccc1Cl`?
VDR inhibitor: 4%
